Source: PubChem (several laboratories)
Autofluor counter: counter-screen for toxin protease inhibitors: compound fluorescence | AID 624483 | 360,000 tested, 3.1% active | fluorescence intensity (no concentration beside the values) | compound autofluorescence counterscreen, microsphere flow cytometry; stronger effect = higher value;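 active = at least 3 SD above the mean of all compounds, about 16000 in these data; inconclusive = too few beads counted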;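 also: 100 nL of 1 mM stock went into each well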
Mtb hypoxia inh: reduces hypoxia-regulated biosensor signal in M. tuberculosis; 300,000 tested, 0.1% active; M. tuberculosis hypoxia-regulated fluorescent reporter, fluorescence; fluorescence inhibition, % (test concentration not listed); AID 1159583;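 active = 35 to 45% if threefold the growth effect, above 45% if 1.5-fold the growth effect; inactive = the rest, general growth blockers included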;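 also: wells of about 50 µL received 100 nL stock; 0% = vehicle wells and 100% = reference inhibitor wells; whole bacteria with a GFP reporter of the hypoxia response; strong numbers were not always called active; many hits fall short of the cut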
ugtP null kill: growth inhibition of S. aureus ugtP deletion strain | growth inhibition, % (no concentration beside the values) | AID 1259309 | 330,000 tested, 0.54% active | S. aureus RN4220 ugtP deletion, OD600 growth, 16 h; some inactives read as strong as hits;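 active = z-score under -3 and OD600 up to 0.15 on both plates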;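 also: plate controls were untreated wells for no effect and antibiotic for full effect; wells of about 80 µL received 100 nL stock; the first replicate is given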
Sa RN4220 lethal: kills Staphylococcus aureus RN4220. 330,000 tested, 0.33% active. inhibition, % (test concentration not listed). S. aureus RN4220 growth, OD600, 16 h. AID 1259311;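 active = z-score of -3 or lower and OD600 up to 0.18 on both plates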;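 also: plate controls were untreated cells for no effect and reference antibiotic for full effect; stock transfer was 100 nL into about 80 µL; one replicate is shown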
BJeLR lethal: BJeLR cell viability loss | BJeLR (HRASV12) viability, CellTiter-Glo ATP luminescence, 48 h; reference of the scale not given here | inhibition, % (test concentration not listed) | 300,000 tested, 0.17% active | AID 1554;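 active = replicate mean above 50%; inconclusive = above 50% but judged a plate artefact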;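 also: 50 nL library stock added to about 25 µL; numbers are from one replicate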
PrP 5UTR inh: suppresses PrP 5' UTR mRNA reporter expression; cell-based PrP 5' UTR mRNA reporter, plate reader; inhibition, % (test concentration not listed); 340,000 tested, 0.35% active;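 active = every replicate at 50% or more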;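 also: 0 = median of the neutral control wells; tested in H4 reporter cells; numbers are from one replicate; inactives centre near -14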
Mtb hypoxia inh growth: second read-out of Mtb hypoxia inh, no call of its own (marks repeat the call); growth inhibition, %; measured here: M. tuberculosis growth (absorbance);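 0% = vehicle and 100% = reference antibiotic; read after six days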
An asterisk follows results filed as active; ? = inconclusive; · = no result given.

no.	smiles	BJeLR lethal	Sa RN4220 lethal	Mtb hypoxia inh growth	ugtP null kill	Autofluor counter	Mtb hypoxia inh	PrP 5UTR inh
1	COC(=O)[C@H](CC(C)C)NC(=O)NC1CCCc2ccccc21 (stereo partly specified)	-3	-1.3	9	10	2303	25	7
2	N#Cc1c(N)c(C(=O)c2ccccc2)n2c1CCC2	0	4.2	8	3	23949*	12	3
3	CCc1cc(=O)[nH]c(SC/C=C/c2ccccc2)n1	-6	2.5	1	-2	?	9	-3
4	O=C(CNC(=O)OCc1ccccc1)NC1CCCCNC1=O (stereo unspecified)	-1	-1.0	-3	12	3285	-1	-22
5	CN(C)S(=O)(=O)c1cccc(N=c2scc(-c3ccc4c(c3)NC(=O)CO4)n2CC2CCCO2)c1 (stereo unspecified)	-1	4.8	·	-4	2343	·	-32
6	Brc1cnc(N2CCCC2)nc1N1CCCCC1	-10	13	·	14	4593	·	-9
7	Cc1cc(C)n2nc(C(=O)OCC(=O)c3c[nH]c4ccccc34)nc2n1	0	2.5	4	1	5130	5	-32
8	CCOc1ccc2nc(SC3CC(=O)N(c4ccc(OC)cc4OC)C3=O)sc2c1 (stereo unspecified)	-5	8.4	9	5	2525	10	-16
9	Cn1c(CCN2CCOCC2)nc2cc(NC(=O)COc3ccccc3)ccc21	-1	5.2	2	13	·	24	-16
10	CC(CN1CCN(C/C=C/c2ccccc2)CC1)c1ccccc1 (stereo unspecified)	5	1.4	-2	14	4016	-1	-21
11	CCN(CC)C(=O)c1cccc(C)c1	-6	3.4	3	-2	4128	11	-13
12	COc1ccc(CN(CC(=O)NC2CCCC2)C(=O)c2csnn2)cc1	1	1.4	0	1	3757	-2	-9
13	CCOc1ccccc1NC(=O)CSc1nnc(Cc2ccc(OC)cc2)c(=O)n1N	8	1.9	-2	2	?	-4	-19
14	Cc1ccc([C@@H]2[C@@H]3C(=O)N(C)C(=O)[C@@H]3[C@]3(Cc4ccccc4)C(=O)N(CCO)CC(=O)N23)o1	1	·	·	·	4073	·	-28
15	CN(C)C(CNc1ccc(C(F)(F)F)cc1[N+](=O)[O-])c1ccccc1 (stereo unspecified)	1	-1.3	-19	1	5498	-6	-30
16	CCOC(=O)N1CCN(S(=O)(=O)c2ccc(C(=O)N(CCCN(C)C)c3nc4ccc(CC)cc4s3)cc2)CC1	-7	-1.4	7	5	6633	2	-18
17	O=C(O)C1CCCN1C(=O)Nc1ccc(F)cc1 (stereo unspecified)	5	-1.0	7	-4	6453	4	-17
18	CN(CC(O)COCc1cccs1)C1CCCCC1 (stereo unspecified)	7	3.7	6	6	2813	8	-4
19	NS(=O)(=O)c1ccc(NC(=S)Nc2ccc(F)c(F)c2)cc1	-3	1.1	7	-13	2461	11	-4
20	CC(=O)Nc1ccc(-c2ccnc(-c3ccc(NC(C)=O)cc3)n2)cc1	-1	1.9	19	3	4141	4	-17
21	CC(C)(C)c1cc(-c2ccccc2)no1	0	2.5	13	-2	4478	2	-7
22	CCCNC(=O)N1C2CCC1C(C(=O)OC)=C(c1cccc(C#N)c1)C2 (stereo unspecified)	·	2.1	11	-7	·	7	·
23	Cc1nnc(SCC2CCCO2)n1-c1ccccc1 (stereo unspecified)	7	1.1	4	4	8103	0	-11
24	O=c1[nH]c(=S)[nH]c2nccnc12	·	3.8	11	10	3005	23	-27
25	CCCCCCCCCCC[C@@H](C[C@@H]1OC(=O)[C@H]1CCCCCC)OC(=O)[C@H](CC(C)C)NC=O	-6	·	·	·	4352	·	-7
26	Cc1ccc(OCc2cc(C(=O)NCCc3cccnc3)no2)cc1C	-1	2.8	4	-1	5079	2	-55
27	Cc1cc(NC(=O)c2ccc(Cl)cc2)n(-c2ccccc2)n1	-7	0.4	3	1	3811	10	-15
28	COc1ccccc1NC(=O)COC(=O)CCC(=O)c1cccs1	·	3.1	5	0	?	-1	-16
29	C=CCNC(=O)c1c(Br)cnn1-c1ccc(C)cc1	3	4.5	1	0	4144	9	-57
30	COc1cc(Cl)c(C)cc1NC(=O)CSCC#N	-2	2.8	5	-5	5207	-7	3

no.	smiles	BJeLR lethal	Sa RN4220 lethal	Mtb hypoxia inh growth	ugtP null kill	Autofluor counter	Mtb hypoxia inh	PrP 5UTR inh
31	Cn1c(SCC(=O)Nc2ccc(C(N)=O)cc2)nc2c(c1=O)SCC2	1	3.2	13	2	5905	7	-1
32	COc1ccc(CC(=O)OCC(=O)N(C)C2CCS(=O)(=O)C2)cc1OC (stereo unspecified)	0	0.0	-5	8	5602	10	-24
33	COc1ccc(CCNC(=O)C2CCCN2C(=O)Nc2cccc(OC)c2)cc1 (stereo unspecified)	-4	2.8	-2	4	3301	-1	-25
34	Cc1ccc(NC(=O)N2CCN(Cc3ccc4c(c3)OCO4)CC2)cc1	-11	-0.6	0	23	8288	-1	-36
35	O=C(NC1CCN(Cc2ccccc2)CC1)c1cccc(S(=O)(=O)Nc2ccc(F)cc2)c1	·	-2.4	-2	-7	6889	-2	5
36	COc1ccc(-c2nc3cnccn3c2NCc2ccccc2)cc1SC1CCCCC1	-6	-1.6	-12	0	5777	-4	-18
37	COC(=O)c1cc(S(=O)(=O)N2CCCC2)c(Cl)cc1Cl	-1	4.8	2	7	2987	6	-8
38	CC(C)C(=O)N1CCN(c2ccc([N+](=O)[O-])c(NC(C)c3ccccc3)c2)CC1 (stereo unspecified)	7	-9.1	1	-20	8098	8	-11
39	CCOC(=O)c1c(-c2ccc(C)cc2)csc1N=CN(C)C	·	7.5	12	13	·	11	·
40	CCc1nccn1CCC(=O)NC1CCCc2c1cnn2-c1ccc(F)cc1F (stereo unspecified)	-1	2.1	-6	2	4242	3	-14
41	CCCN(CC(=O)Nc1ccccc1OC)C(=O)c1ccc2[nH]c3c(c2c1)CC(C)CC3 (stereo unspecified)	·	-3.4	-1	-25	2917	0	-13
42	CCOC(=O)C1=CN(CC)S(=O)(=O)NC1c1ccccc1 (stereo unspecified)	·	-1.4	-2	3	4126	-6	9
43	CN(C)c1ccc(-c2nn3c(-c4ccccc4Cl)nnc3s2)cc1	-6	-0.1	8	-16	?	-9	45
44	CN(Cc1cccc2cnccc12)C(=O)c1cc(COc2ccc(F)cc2F)on1	21	1.3	2	11	6040	10	-27
45	CCCC1(c2ccccc2)NC(=O)N(CC(=O)Nc2sc(-c3ccccc3)cc2C(=O)OCC)C1=O (stereo unspecified)	-6	-4.9	·	-23	4344	·	-12
46	COc1ccc(Br)cc1S(=O)(=O)NCCc1cccs1	·	8.4	-16	-3	8820	-5	-9
47	Cc1ccc2nc3c(c(Nc4ccc(O)cc4)c2c1)CCC3	3	·	·	·	3176	·	5
48	O=[n+]1cc(-c2ccc(Cl)cc2)n([O-])c2c1CCC2	5	1.1	-4	6	3215	-2	-28
49	Cc1ccc(C(C(=O)NC2CCCCC2)N(C(=O)Cc2c[nH]c3ccccc23)c2ccccc2)o1 (stereo unspecified)	15	-1.5	-6	-9	20827*	-9	0
50	N#Cc1c(/N=C/c2ccc(O)cc2O)sc2c1C1CCN2CC1	5	·	·	·	2326	·	-24
51	CCC(NC(=S)NC1CCCCC1)c1ccc(C(C)C)cc1 (stereo unspecified)	0	·	·	·	4162	·	-4
52	CC(=O)N(Cc1cccnc1)Cc1cc2ccc(C)cc2[nH]c1=O	0	2.3	12	-10	8571	7	-1
53	Cc1cc(Br)ccc1NC(=O)CN(C)C(=O)CSCc1ccccc1	-5	0.1	-7	-1	?	-7	-12
54	CCN(CC)S(=O)(=O)c1cccc(C(=O)Oc2cccc(NC(=O)c3cccs3)c2)c1	-4	6.4	7	2	10697	10	12
55	COc1cccc(/C=N/n2c(-c3ccco3)nc3ccccc3c2=O)c1	0	·	·	·	2367	·	-17
56	CN(CC(=O)Nc1cccnc1)S(=O)(=O)c1cc(Cl)ccc1Cl	7	5.7	5	3	25881*	3	-90
57	COc1ccc(NC(=S)N2CCN(CC=Cc3ccccc3)CC2)cc1	·	5.5	3	-1	·	3	·
58	COc1ccc(C2CC(C(F)(F)F)n3ncc(C(=O)Nc4cccc(O)c4)c3N2)cc1OC (stereo unspecified)	5	6.5	13	3	4206	3	-11
59	COc1cccc(NC(=S)NC2CC3CCCC(C2)N3CC(C)C)c1 (stereo unspecified)	-3	-0.8	-3	1	4620	13	-45
60	Cn1cc(CCCC(=O)NCc2ccc(F)cc2)c2ccccc21	9	0.3	1	3	3912	4	-8

Reformatted with one line to a screen: entries from further up.
31. Cn1c(SCC(=O)Nc2ccc(C(N)=O)cc2)nc2c(c1=O)SCC2
32. COc1ccc(CC(=O)OCC(=O)N(C)C2CCS(=O)(=O)C2)cc1OC (stereo unspecified)
33. COc1ccc(CCNC(=O)C2CCCN2C(=O)Nc2cccc(OC)c2)cc1 (stereo unspecified)
34. Cc1ccc(NC(=O)N2CCN(Cc3ccc4c(c3)OCO4)CC2)cc1
35. O=C(NC1CCN(Cc2ccccc2)CC1)c1cccc(S(=O)(=O)Nc2ccc(F)cc2)c1
36. COc1ccc(-c2nc3cnccn3c2NCc2ccccc2)cc1SC1CCCCC1
37. COC(=O)c1cc(S(=O)(=O)N2CCCC2)c(Cl)cc1Cl
38. CC(C)C(=O)N1CCN(c2ccc([N+](=O)[O-])c(NC(C)c3ccccc3)c2)CC1 (stereo unspecified)

| assay / entry | 31 | 32 | 33 | 34 | 35 | 36 | 37 | 38 |
| --- | --- | --- | --- | --- | --- | --- | --- | --- |
| BJeLR lethal | 1 | 0 | -4 | -11 | · | -6 | -1 | 7 |
| Sa RN4220 lethal | 3.2 | 0.0 | 2.8 | -0.6 | -2.4 | -1.6 | 4.8 | -9.1 |
| Mtb hypoxia inh growth | 13 | -5 | -2 | 0 | -2 | -12 | 2 | 1 |
| ugtP null kill | 2 | 8 | 4 | 23 | -7 | 0 | 7 | -20 |
| Autofluor counter | 5905 | 5602 | 3301 | 8288 | 6889 | 5777 | 2987 | 8098 |
| Mtb hypoxia inh | 7 | 10 | -1 | -1 | -2 | -4 | 6 | 8 |
| PrP 5UTR inh | -1 | -24 | -25 | -36 | 5 | -18 | -8 | -11 |

39. CCOC(=O)c1c(-c2ccc(C)cc2)csc1N=CN(C)C
40. CCc1nccn1CCC(=O)NC1CCCc2c1cnn2-c1ccc(F)cc1F (stereo unspecified)
41. CCCN(CC(=O)Nc1ccccc1OC)C(=O)c1ccc2[nH]c3c(c2c1)CC(C)CC3 (stereo unspecified)
42. CCOC(=O)C1=CN(CC)S(=O)(=O)NC1c1ccccc1 (stereo unspecified)
43. CN(C)c1ccc(-c2nn3c(-c4ccccc4Cl)nnc3s2)cc1
44. CN(Cc1cccc2cnccc12)C(=O)c1cc(COc2ccc(F)cc2F)on1
45. CCCC1(c2ccccc2)NC(=O)N(CC(=O)Nc2sc(-c3ccccc3)cc2C(=O)OCC)C1=O (stereo unspecified)

| assay / entry | 39 | 40 | 41 | 42 | 43 | 44 | 45 |
| --- | --- | --- | --- | --- | --- | --- | --- |
| BJeLR lethal | · | -1 | · | · | -6 | 21 | -6 |
| Sa RN4220 lethal | 7.5 | 2.1 | -3.4 | -1.4 | -0.1 | 1.3 | -4.9 |
| Mtb hypoxia inh growth | 12 | -6 | -1 | -2 | 8 | 2 | · |
| ugtP null kill | 13 | 2 | -25 | 3 | -16 | 11 | -23 |
| Autofluor counter | · | 4242 | 2917 | 4126 | ? | 6040 | 4344 |
| Mtb hypoxia inh | 11 | 3 | 0 | -6 | -9 | 10 | · |
| PrP 5UTR inh | · | -14 | -13 | 9 | 45 | -27 | -12 |

The list continues.
no.	smiles	BJeLR lethal	Sa RN4220 lethal	Mtb hypoxia inh growth	ugtP null kill	Autofluor counter	Mtb hypoxia inh	PrP 5UTR inh
61	CCOC(=O)N1CCN(C(=O)COC(=O)c2ccccc2NCCO)CC1	-5	-0.6	6	2	?	-9	-5
62	Cc1ccc(C2/C(=C(\O)c3ccc4c(c3)OCCO4)C(=O)C(=O)N2CC2CCCO2)cc1 (stereo unspecified)	·	2.4	-5	6	4448	-3	2
63	CC(C)(C)[C@H]1C=C(C(=O)N2CCOCC2)O[C@@H](OCc2ccc(CO)cc2)C1	-1	·	·	·	3752	·	-11
64	Cc1ccc(CNC(=O)CSc2nc3c(sc4ccccc43)c(=O)n2CCCN2CCCC2)cc1	9	2.7	6	2	6757	10	-18
65	CCCN(CCC)C(=O)Cn1c(=O)n(CCC(=O)NCCc2ccccc2)c(=O)c2ccccc21	-2	2.5	5	10	9966	2	0
66	Cc1ccc2cc(CN(CCO)Cc3nnnn3Cc3ccc(F)cc3)c(=O)[nH]c2c1	10	17	-4	3	3213	-4	-16
67	O=C(/C(=C/O)N=Nc1ccccc1)c1ccc(Cl)cc1	-11	·	·	·	4330	·	-19

An unsorted share of the library. About 4% of those tested had a hit in this group.
